Assay outcomes deposited in PubChem BioAssay by National Center for Advancing Translational Sciences (NCATS).
TRPV1 PAM: HTS Assay for Compounds that Act as Potentiators of the Vanilloid Receptor 1 | TRPV1-expressing cells, Fluo-8 calcium influx, capsaicin EC20 potentiation; host cell line not named in the record; control for the full effect not named in the record | potentiation, % at 8.33 µM | 320,000 compounds, 0.02% hits | AID 540277, 2011; active means potentiation above 80%; inconclusive means 30% to 80%; inactive means below 30%; further: 0% is about no effect
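Cells expressing TRPV1 were dye-loaded with Fluo-8 and read kinetically: 10 s baseline, 3 min after compound (agonist portion), then 2 min after EC20 capsaicin (allosteric enhancer portion). Calcium-bound dye fluorescence at 480/520 nm.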
D2 PAM: Beta-Arrestin HTS for Positive Allosteric Modulators of the Human D2 Dopamine Receptor: Potentiators. 360,000 compounds, 0.23% hits. DiscoveRx D2 beta-arrestin cells, luminescence, 90 min; 100% = 57 uM dopamine signal. potentiation, % (no concentration beside the values). D(2) dopamine receptor (Homo sapiens), P14416; active = potentiation of 50% or more; inconclusive = 30% to 50%; inactive = 30% or less;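 further: compound concentration not given in the record; tested on top of an EC20 dose of dopamine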
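PathHunter beta-arrestin assay in DiscoveRx D2 cells. Compounds were added with an EC20 of dopamine (50 nM final) for 90 min at 37 deg C. Luminescence was read 1 h after detection reagent, with 57 uM dopamine as the EC100 control.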
TRPML1 blocker: qHTS for Inhibitors of the Human Mucolipin Transient Receptor Potential 1 (TRPML1). 390,000 compounds, 0.02% hits. Mucolipin-1 (Homo sapiens), Q9GZU1. activity change, negative = inhibition, % (test concentration not listed). TRPML1-inducible cells, Ca2+ dye fluorescence, FDSS; stronger effect = lower value; inhibition of EC80 agonist-evoked calcium signal. AID 624415, 2012; in the data active means activity change below about -50%; inconclusive means about -30% to -50%; inactive means above about -30%;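 further: stimulus is agonist 54-4 at its EC80 concentration; on the % scale 0 is the no-effect control and ±100 the full control effect; compound concentration not given in the record; the text of the record puts the active cut at -80%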
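Calcium fluorescence in TRPML1-DL cells induced overnight with Tet: a 110 s read after compound pin addition, then a 110 s antagonist read after challenge with 54-4 at 4 uM final (EC80).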
CtBP-E1A inh: qHTS Assay for Inhibitors of the CtBP/E1A Interaction. activity change, % (concentration not given with the values). 340,000 compounds, 0.49% hits. AlphaScreen GST-E1A/His-CtBP binding, 1536-well; stronger effect = lower value; control for the full effect not named in the record; in the data active means activity change below about -65%; inconclusive means about -30% to -65%; inactive means above about -30%; further: on the % scale 0 is the no-effect control and ±100 the full control effect
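AlphaScreen with 125 nM GST-E1A and 125 nM His-CtBP (5X stocks) in Tris pH 8.0, 300 mM NaCl, BSA, Tween 20, TCEP. Compounds preincubated 2 h at 37 deg C, then glutathione donor/nickel acceptor beads added for 1 h at 37 deg C in dark.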
TRPML1 ag: qHTS for Agonists of the Human Mucolipin Transient Receptor Potential 1 (TRPML1); Mucolipin-1 (Homo sapiens), Q9GZU1; TRPML1-expressing cells, Ca2+ dye fluorescence, FDSS; host cell line not named in the record; reference of the full effect not given here; activation, % (no concentration beside the values); 410,000 compounds, 0.12% hits; AID 624414, 2012; in the data active = activation above about 50%; inconclusive = about 30% to 50%; inactive = below about 30%; further: 0% is about no effect; the text of the record puts the active cut at 80%
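TRPML1-DL cells, Tet-induced overnight (~16 h, 37 degrees C), loaded 45-90 min at room temperature with Ca8 no-wash calcium dye plus quencher. FDSS fluorescence: 10 s baseline, compound pin-transfer, 110 s agonist read, then EC80 54-4 (4uM final) and 110 s antagonist read.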
Six1-Eya2 inh: qHTS Assay for Inhibitors of the Six1/Eya2 Interaction; Homeobox protein SIX1 (Homo sapiens) + Protein phosphatase EYA2 (Homo sapiens), …; AlphaScreen GST-Six1/His-Eya2 binding, biochemical; stronger effect = lower value; control for the full effect not named in the record; activity change, % (concentration not given with the values); 360,000 compounds, 0.56% hits; in the data active = activity change below about -65%; inconclusive = about -30% to -65%; inactive = above about -30%; further: on the % scale 0 is the no-effect control and ±100 the full control effect
Target sequence (O00167 whole entry, looked up): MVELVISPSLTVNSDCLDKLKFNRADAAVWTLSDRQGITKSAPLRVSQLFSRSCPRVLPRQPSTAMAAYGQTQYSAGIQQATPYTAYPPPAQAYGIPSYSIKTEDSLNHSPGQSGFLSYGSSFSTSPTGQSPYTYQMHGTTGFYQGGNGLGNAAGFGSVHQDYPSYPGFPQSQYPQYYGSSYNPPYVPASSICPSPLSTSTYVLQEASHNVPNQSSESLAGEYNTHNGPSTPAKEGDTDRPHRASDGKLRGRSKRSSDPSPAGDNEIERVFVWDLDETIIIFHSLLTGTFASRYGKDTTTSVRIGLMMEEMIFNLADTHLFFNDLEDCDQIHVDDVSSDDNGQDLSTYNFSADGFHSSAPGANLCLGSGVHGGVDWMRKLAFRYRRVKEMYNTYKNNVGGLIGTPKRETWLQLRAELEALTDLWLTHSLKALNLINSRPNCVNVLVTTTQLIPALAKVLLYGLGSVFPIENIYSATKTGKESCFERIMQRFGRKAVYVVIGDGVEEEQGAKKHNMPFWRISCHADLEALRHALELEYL
Target sequence (Q15475 whole entry, looked up): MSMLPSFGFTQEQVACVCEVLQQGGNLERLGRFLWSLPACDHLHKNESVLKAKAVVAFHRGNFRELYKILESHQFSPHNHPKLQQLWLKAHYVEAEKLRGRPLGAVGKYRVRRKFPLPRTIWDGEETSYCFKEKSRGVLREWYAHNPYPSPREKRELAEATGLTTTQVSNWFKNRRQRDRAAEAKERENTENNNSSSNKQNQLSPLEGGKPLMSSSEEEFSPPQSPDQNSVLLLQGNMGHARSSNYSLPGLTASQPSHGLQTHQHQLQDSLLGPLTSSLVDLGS
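Compounds are tested against tagged Six1 and Eya2 proteins bridged by glutathione donor and nickel acceptor beads; after a one-hour incubation at 37 °C without light, AlphaScreen emission is recorded.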
* = called active by the depositor; ? = inconclusive; . = not tested or not shown.

no. | Molecule | TRPV1 PAM | D2 PAM | TRPML1 blocker
1 | c1ccc2c(CSCc3nc4ccccc4[nH]3)cccc2c1 | -5.0 | -12.3 | 10.1
2 | O=C1C=CCCC1 | -3.1 | 1.2 | 34.2
3 | O=C(Nc1nccs1)c1ccc(COc2ccccc2Cl)o1 | -8.6 | 0.1 | 21.5
4 | CCCNC(=O)NC(=O)CSc1nc2ccccc2c(=O)n1Cc1ccncc1 | 0.0 | -10.9 | -16.6
5 | CCN(CC)S(=O)(=O)c1ccc(N2CCN(S(=O)(=O)c3ccccc3)CC2)nc1 | -9.8 | 3.2 | 8.9
6 | CCOc1ccc(NC(=O)NC(=O)N(C(C)C)S(C)(=O)=O)cc1 | 0.7 | -3.8 | -2.3
7 | N#Cc1ccccc1/C=C/C(=O)N1CCOCC1 | -6.8 | -17.7 | -1.0
8 | COc1cccc(C2N(c3ccccc3)CCN2c2ccccc2)c1OC | 6.7 | -1.3 | -11.2
9 | Cc1cccc(-n2c(C)n[nH]c2=S)c1 | 4.4 | -12.0 | -6.2
10 | CC(C)NC(=O)C1(C)CCN1Cc1cccc(Cl)c1 (stereo not drawn) | . | -7.7 | .
11 | O=C(C[C@H]1C/C=C\C[C@@H](Cc2ccc(F)cc2)C(=O)OC[C@H]2CCCN2C1=O)N[C@H](CO)Cc1ccccc1 | . | 2.5 | 23.5
12 | O=c1oc(CCCO)cc2ccc(C#Cc3ccsc3)cc12 | -11.0 | 6.1 | -4.7
13 | COc1ccc(OC)c(S(=O)(=O)Nc2cnc3ccccc3c2)c1 | 8.8 | -26.6 | 6.6
14 | C/C(Cl)=C\Cn1c(NCCCn2ccnc2)nc2c1c(=O)n(C)c(=O)n2C | 10.7 | -12.9 | 2.1
15 | CCc1ccc(NC(=S)N2CCN(c3cccc(OC)c3)CC2)cc1 | -10.7 | 2.2 | -3.1

no. | CtBP-E1A inh | TRPML1 ag | Six1-Eya2 inh
1 | -3.0 | -0.3 | -8.1
2 | 7.6 | 0.8 | 2.8
3 | -11.0 | 2.1 | -13.8
4 | -18.3 | 1.4 | 9.4
5 | 6.6 | 0.1 | 3.6
6 | 4.3 | 0.3 | 1.8
7 | 5.5 | -0.5 | 3.2
8 | 0.2 | 0.7 | 15.2
9 | 3.0 | 0.8 | 7.5
10 | 6.3 | -0.6 | 5.4
11 | -9.4 | 0.5 | 12.7
12 | . | -0.3 | -4.8
13 | -0.2 | -1.2 | -0.6
14 | -1.4 | -0.7 | -7.2
15 | 9.3 | 0.8 | -10.0

Given with tabs: part of the list above.
item	structure	TRPV1 PAM	D2 PAM	TRPML1 blocker	CtBP-E1A inh	TRPML1 ag	Six1-Eya2 inh
15	CCc1ccc(NC(=S)N2CCN(c3cccc(OC)c3)CC2)cc1	-10.7	2.2	-3.1	9.3	0.8	-10.0
9	Cc1cccc(-n2c(C)n[nH]c2=S)c1	4.4	-12.0	-6.2	3.0	0.8	7.5
1	c1ccc2c(CSCc3nc4ccccc4[nH]3)cccc2c1	-5.0	-12.3	10.1	-3.0	-0.3	-8.1
4	CCCNC(=O)NC(=O)CSc1nc2ccccc2c(=O)n1Cc1ccncc1	0.0	-10.9	-16.6	-18.3	1.4	9.4

Following part.
no. | Molecule | TRPV1 PAM | D2 PAM | TRPML1 blocker
16 | Cc1ccc(S(=O)(=O)N2CCC(C(=O)NC3CC3)CC2)cc1 | 14.7 | -6.8 | -4.1
17 | COc1ccc(CCN2CC(C(=O)N(C)CC(=O)Nc3ccc(F)c(F)c3F)CC2=O)cc1OC (stereo not drawn) | . | 8.6 | -6.7
18 | O=C(NC(=O)N1CCCC1)c1csnn1 | 3.1 | -6.7 | 45.6
19 | O=C(OCC(=O)N(CCc1ccccc1)Cc1ccccc1)c1cc(S(=O)(=O)N2CCOCC2)ccc1F | 12.2 | -8.4 | 36.3
20 | O=C(O)/C=C\C(=O)Nc1ccccc1C(=O)N1CCN(c2ccc(Cl)cc2)CC1 | -8.3 | -5.4 | -9.6
21 | COc1ccc(NCC(=O)Nc2c(C)cccc2C)cc1S(=O)(=O)N1CCOCC1 | . | -8.9 | 25.9
22 | CC1(C)Cc2ccccc2C(NN=C2CCCC2)=N1 | 0.7 | -0.7 | 14.8
23 | Cc1nc(NCCc2ccccc2)sc1C(=O)N(C)C | 27.9 | 0.4 | 3.0
24 | Cc1cccc(NC(=O)c2ccc(NC(=O)c3ccccc3Br)cc2)c1 | 3.2 | -15.7 | -1.4
25 | Cc1ccc(S(=O)(=O)CC(O)CN2CCCC2=O)cc1 (stereo not drawn) | . | -7.0 | 29.6
26 | Cc1ccc(F)cc1NC(=O)C1C2CCC(O2)C1C(=O)O (stereo not drawn) | -5.0 | ? | .
27 | CN(C)CCCNc1ncnc2c1cnn2Cc1ccccc1Cl | 21.2 | -11.1 | -6.7
28 | COc1ccc(NS(=O)(=O)c2ccc(C)c(C(=O)OC(C)C(=O)N3CCOCC3)c2)cc1 (stereo not drawn) | 27.7 | 0.1 | 16.5
29 | Cn1c(=O)[nH]c2cc3ccccc3cc21 | -6.4 | 11.2 | -1.3
30 | COc1ccccc1NC(=O)COc1ccc(/C=N/n2cnnc2)cc1OC | -4.7 | -9.3 | 9.7

no. | CtBP-E1A inh | TRPML1 ag | Six1-Eya2 inh
16 | 4.3 | -0.4 | -3.7
17 | 15.9 | 1.9 | 2.3
18 | 8.5 | 0.8 | 2.4
19 | -0.5 | 0.5 | -7.2
20 | 9.2 | -0.6 | 3.2
21 | 3.4 | -0.2 | -3.4
22 | -18.2 | -0.4 | -11.6
23 | 2.3 | -0.5 | -0.8
24 | -6.0 | 3.2 | -0.1
25 | 7.0 | 0.0 | 4.4
26 | . | . | -1.4
27 | 2.4 | -0.1 | 12.1
28 | 5.6 | -0.8 | -6.2
29 | 4.6 | -0.9 | -2.0
30 | 0.5 | 0.3 | 1.3

Quoted from the listing:
`O=C(NC(=O)N1CCCC1)c1csnn1` in TRPV1 PAM is listed with 3.1
`Cc1cccc(NC(=O)c2ccc(NC(=O)c3ccccc3Br)cc2)c1` in CtBP-E1A inh is listed with -6.0
`COc1ccc(CCN2CC(C(=O)N(C)CC(=O)Nc3ccc(F)c(F)c3F)CC2=O)cc1OC` (stereo not drawn) in TRPML1 blocker is listed with -6.7

Continuation:
no. | Molecule | TRPV1 PAM | D2 PAM | TRPML1 blocker
31 | COc1ccc2cc(C(=O)NCc3ccccc3CN3CCCC3)ccc2c1 | -8.8 | -2.3 | 4.5
32 | CCc1nnc(NC(=O)c2ccc(S(=O)(=O)N(CCOC)CCOC)cc2)o1 | 15.8 | 4.8 | -2.8
33 | COC(=O)CCCNC(=O)OCc1ccc([N+](=O)[O-])cc1 | 12.6 | -21.1 | 4.6
34 | CCn1c(SCC(=O)Nc2nc(C)c(C)s2)nc2cccnc21 | ? | -3.8 | -28.8
35 | COC(=O)CN(c1ccc2c(c1)OCO2)S(C)(=O)=O | -19.4 | 13.6 | -0.3

no. | CtBP-E1A inh | TRPML1 ag | Six1-Eya2 inh
31 | 20.5 | -0.6 | 11.1
32 | -21.2 | -0.2 | -21.7
33 | 2.3 | -0.3 | 8.2
34 | -2.5 | -0.2 | -0.1
35 | 11.8 | -0.1 | 11.7

Among those listed so far, these contain two or more sulfur atoms.
no. | Molecule | TRPV1 PAM | D2 PAM | TRPML1 blocker
5 | CCN(CC)S(=O)(=O)c1ccc(N2CCN(S(=O)(=O)c3ccccc3)CC2)nc1 | -9.8 | 3.2 | 8.9
34 | CCn1c(SCC(=O)Nc2nc(C)c(C)s2)nc2cccnc21 | ? | -3.8 | -28.8

no. | CtBP-E1A inh | TRPML1 ag | Six1-Eya2 inh
5 | 6.6 | 0.1 | 3.6
34 | -2.5 | -0.2 | -0.1

Copied from the entries so far, two compounds:
no. | Molecule | TRPV1 PAM | D2 PAM | TRPML1 blocker
33 | COC(=O)CCCNC(=O)OCc1ccc([N+](=O)[O-])cc1 | 12.6 | -21.1 | 4.6
34 | CCn1c(SCC(=O)Nc2nc(C)c(C)s2)nc2cccnc21 | ? | -3.8 | -28.8

no. | CtBP-E1A inh | TRPML1 ag | Six1-Eya2 inh
33 | 2.3 | -0.3 | 8.2
34 | -2.5 | -0.2 | -0.1
